Vif A3G – inhibitors of Vif binding to APOBEC3G peptide, primary screen, biochemical, TR-FRET, GST-Vif 1-94, biotin-A3G peptide, dose response retest (AID 1117319); TR-FRET GST-Vif / biotin-A3G peptide binding; higher % means a stronger effect; test concentration not given here; strong numbers were not always called active; one-dose inhibition, %; IC50 in µM for titrated hits; actives 0.57% (n = 260,000);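 active = above the screen mean plus three standard deviations and confirmed in dose response; inconclusive = results disagree or hit not tested in dose response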;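 note: Vif residues 1-94 fused to GST binding biotinylated APOBEC3G peptide 110-148; 0% = full assay without inhibitor and 100% = GST in place of GST-Vif; retest series ran down from 100 µM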
RanGTP-Impb inh – disruptors of Ran-importin-beta complex formation – biochemical, FRET, CFP-Ran, YFP-importin-beta, homogeneous, primary screen. cell-free CFP-Ran/YFP-importin-beta FRET ratio. inhibition, % (test concentration not listed). actives 1.1% (n = 300,000);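 active = most replicates above 15%; inconclusive = exactly half above 15%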;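 note: 0% = DMSO wells and 100% = Ran loaded with GDP instead of GTP; wells of about 40 µL received 100 nL stock; the first replicate is given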
ALR H2O2 inh – inhibitors of human sulfhydryl oxidase ALR | purified ALR, DTT oxidation, H2O2 HRP-luminol luminescence | inhibition, % (concentration not given with the values) | actives 3.8% (n = 290,000) | AID 485317;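 active = mean and each replicate at 75% or more; inconclusive = only one of the two met; inactive = neither met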;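 note: stock transfer was 7.5 nL into about 7.5 µL; 0% = neutral wells and 100% = wells with inactivated enzyme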
HNF4A DNA FP – change in binding of human HNF4 alpha to DNA. P41235. HNF4a-FITC DNA binding, fluorescence polarization, 1 h. activity change, % at 10 µM. actives 0.3% (n = 360,000); in the data active = activity change above about 30%, passing the limit was not always enough;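 note: controls were the assay level and a saturating level of protein; the project sought stronger binding though the title names inhibitors; some compounds called inactive have numbers as strong as hits; positive values seem to mean higher polarization but the record does not say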
Calb FLC – C. albicans growth modulation with fluconazole; growth inhibition, % (no concentration beside the values); C. albicans CaCi-2 (fluconazole-resistant clinical isolate) + fluconazole, Alamar Blue growth, 48 h; actives 0.57% (n = 300,000);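 active = most replicates above 75%; inconclusive = exactly half above 75%; inactive = most below 75%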;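 note: all wells also contain fluconazole at 8 µg/ml as a sub-toxic cotreatment; 0% = median of DMSO wells and 100% = median of geldanamycin control wells; wells of about 8 µL received 7.5 nL stock; the first replicate is given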
LANA-H2B inh – blocks KSHV LANA binding to histone H2A/H2B. Q9QR71. cell-free LANA-H2A/H2B peptide, fluorescence polarization. inhibition, % (test concentration not listed). actives 0.6% (n = 320,000). AID 2629; in the data active = inhibition mostly above about 10%, no sharp cut-off; inactive = mostly below about 6.7%;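 note: stock transfer was 7.5 nL into about 10 µL; 0% = median of vehicle wells and 100% = median of positive control wells; one replicate is shown; the record names a cut of 25% in any replicate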
Target sequence (Q9QR71 whole entry, looked up): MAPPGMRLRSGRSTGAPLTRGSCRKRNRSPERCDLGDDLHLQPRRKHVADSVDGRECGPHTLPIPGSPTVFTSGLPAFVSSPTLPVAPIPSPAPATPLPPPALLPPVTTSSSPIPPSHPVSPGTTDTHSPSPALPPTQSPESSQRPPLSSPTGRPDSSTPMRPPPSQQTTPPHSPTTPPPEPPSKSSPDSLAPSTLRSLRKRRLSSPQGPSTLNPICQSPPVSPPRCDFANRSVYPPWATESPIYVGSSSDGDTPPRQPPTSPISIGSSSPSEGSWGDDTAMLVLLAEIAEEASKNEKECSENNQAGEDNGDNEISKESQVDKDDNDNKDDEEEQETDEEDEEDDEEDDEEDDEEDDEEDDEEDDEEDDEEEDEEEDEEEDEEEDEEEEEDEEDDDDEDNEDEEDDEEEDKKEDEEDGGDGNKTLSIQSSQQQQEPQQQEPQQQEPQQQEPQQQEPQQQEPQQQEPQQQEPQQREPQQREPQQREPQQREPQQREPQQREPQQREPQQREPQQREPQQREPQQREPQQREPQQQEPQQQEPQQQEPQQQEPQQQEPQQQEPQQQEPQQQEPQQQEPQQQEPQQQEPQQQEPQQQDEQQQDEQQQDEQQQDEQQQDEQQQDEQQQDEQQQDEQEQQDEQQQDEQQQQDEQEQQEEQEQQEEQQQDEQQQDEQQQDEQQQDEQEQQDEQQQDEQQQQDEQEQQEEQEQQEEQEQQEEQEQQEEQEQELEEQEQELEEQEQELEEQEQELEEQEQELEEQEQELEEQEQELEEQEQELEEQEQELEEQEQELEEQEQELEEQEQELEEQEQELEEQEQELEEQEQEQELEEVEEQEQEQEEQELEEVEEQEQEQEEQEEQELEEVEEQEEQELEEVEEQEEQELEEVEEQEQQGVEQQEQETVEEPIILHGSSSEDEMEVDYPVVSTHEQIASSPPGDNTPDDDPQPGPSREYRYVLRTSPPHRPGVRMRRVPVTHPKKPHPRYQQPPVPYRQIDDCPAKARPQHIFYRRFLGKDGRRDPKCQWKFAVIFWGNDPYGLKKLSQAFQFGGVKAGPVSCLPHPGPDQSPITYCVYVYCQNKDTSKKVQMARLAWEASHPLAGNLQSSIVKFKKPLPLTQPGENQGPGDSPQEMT
Beta2AR agonist – human beta-2 adrenergic receptor agonism by FAP | Am2.2-beta2AR cells, FAP receptor internalization, flow cytometry; reference of the scale not given here | response, % (test concentration not listed) | P07550 | actives 0.43% (n = 340,000);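 active = response above a set limit, near 3 SD of response in nonfluorescent compounds, cut at about 42% in these data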;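 note: stock transfer was 100 nL into about 11 µL; a reference agonist was the positive control; negative values mostly stem from fluorescent compounds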
Active calls of the source: *; u = inconclusive; x = not tested or not shown.

SMILES | Vif A3G | RanGTP-Impb inh | ALR H2O2 inh | HNF4A DNA FP | Calb FLC | LANA-H2B inh | Beta2AR agonist
CC(C)c1nnc(NC(=O)CCC(=O)NCc2cccs2)s1 | 4% | -58 | -8 | -2.6 | -9 | 18* | -5
Cc1ccc(-c2nc(Nc3ccc(N4CCOCC4)cc3)c3ccccc3n2)cc1 | -8% | 1.2 | 2 | 0.8 | 0 | 2.7 | 6
COc1ccccc1C(=O)NNC(=O)c1cccc(Br)c1 | x | -0.1 | -2 | -4.5 | 7 | -6.8 | -8
CC(=O)c1sc(=S)n(Cc2ccccc2)c1C | -9% | -2.7 | -25 | -1.1 | -17 | -2.1 | -1
Cc1ccc(C(=O)N2CCN(c3ccc(NC(=O)c4ccc(Br)o4)cc3)CC2)cc1 | 2% | 0.6 | -2 | 3.7 | 5 | -3.7 | 12
CCC(CO)NS(=O)(=O)c1cc(-c2nn(C)c(=O)c3ccccc23)ccc1C (centres undefined) | -15% | -0.7 | -7 | 1.6 | 17 | 3.5 | 0
NC(=O)CSc1nc2ccccc2c(=O)n1Cc1ccccc1 | x | -1.1 | 1 | -0.9 | -3 | -0.4 | -4
CCOC(=O)c1ccc(N=Nc2c(C)[nH]n(-c3ccccc3)c2=O)cc1 | x | -1.0 | -9 | 0.0 | -2 | 0.0 | 2
CC(C)Oc1ccc(C(=O)N2CCN(C(=O)c3ccco3)CC2)cc1 | x | 4.3 | -2 | -2.6 | -7 | -0.2 | -13
O=C(Cn1cnc2cc([N+](=O)[O-])ccc2c1=O)NC(=O)NCc1ccccc1 | x | 2.6 | -9 | 2.1 | 13 | -0.2 | -5
COc1ccc(CNC(=O)CCCn2nc(C)n3ccnc3c2=O)cc1 | x | -2.7 | -20 | 3.2 | -2 | -3.2 | -8
COc1ccc(/C=C/C(=O)C23CC4CC(CC(C4)C2)C3)cc1CN1CCOCC1 | 4% | -3.9 | 1 | 7.8 | -2 | -1.9 | 8
O=C(c1cccnc1)N1CCN(CCCc2ccccc2)CC1 | 5% | 3.9 | 0 | 2.8 | 29 | 11 | 1
Cc1ccc(-c2nnc(CSc3nc4cc5c(cc4cc3C)OCO5)o2)cc1 | -2% | 1.6 | -5 | -3.2 | -7 | -2.7 | 2
Cc1cccc(CSCCNC(=O)CSCc2ccc([N+](=O)[O-])cc2)c1 | -3% | 1.9 | -7 | 0.1 | -18 | -6.9 | -7
CN(C)c1ccc(NC(=O)Cn2ncn3c(cc4ccccc43)c2=O)cc1 | 32% | -3.1 | 4 | 2.4 | -5 | -5.5 | -6
CC(=O)Nc1ccc(S(=O)(=O)N(C#N)c2nc(C)cc(C)n2)cc1 | x | 5.0 | -3 | 2.8 | 1 | 3.9 | -6
O=C(c1ccoc1)N1CCCC(N2CCN(c3cccc(C(F)(F)F)c3)CC2)C1 (centres undefined) | -5% | 1.1 | 2 | -1.3 | -18 | 0.3 | 6
CN(C(=O)COC(=O)c1ccccc1SCC(=O)N1CCCC1)c1ccccc1 | x | -0.9 | 1 | 2.8 | -5 | 3.4 | 11
COc1ccccc1C(=O)COC(=O)Cn1nc(C)c([N+](=O)[O-])c1C | 7% | -5.3 | -10 | 0.7 | 8 | -1.4 | -4
CC(OC(=O)C1=COCCO1)C(=O)NC1CCCCC1C (centres undefined) | 1% | x | 0 | 3.1 | x | -5.3 | -2
CN(C)c1ccc(NC(=O)Nc2csc3ccccc23)cc1 | 28% | 3.7 | x | 3.7 | -8 | 0.6 | -7
COc1ccc(C(=O)NCCS(=O)(=O)N(C)C2CCCCC2)cc1 | x | 5.6 | 15 | -0.9 | 3 | 0.7 | -6
Cc1cc(C(=O)CSc2nc(N)cc(N)n2)c(C)n1-c1cccc(C(F)(F)F)c1 | x | 7.6 | 2 | 7.0 | 26 | 0.6 | -4
CC(C)(C)c1nnc(N/N=C/c2ccccc2)n(N)c1=O | -8% | 3.4 | 14 | 0.8 | 0 | -0.8 | 0
NC(=O)C1CCN(S(=O)(=O)c2cccc(C(=O)O)c2)CC1 | 12% | -2.9 | 2 | -3.5 | 0 | -5.5 | 6
COCCCNC(=S)Nc1c(C)cc(C)cc1C | 2% | 2.4 | -2 | -3.4 | 2 | 1.4 | -2
O=C(NC(=S)Nc1cccc(O)c1)c1cncc(Br)c1 | x | -0.2 | -6 | 0.2 | 13 | 2.4 | 1
Cc1ccc(C)n1-c1ccc(C(=O)NN=C2CCCC2)cc1 | 0% | 0.4 | x | -2.8 | 10 | 0.5 | 1
O=C1C2C3C=CC(C4CC34)C2C(=O)N1/N=C/c1ccc(-c2ccc(Cl)cc2[N+](=O)[O-])o1 (centres undefined) | 11% | -0.3 | -9 | 2.4 | 11 | 9.0 | 9
O=C(NCCc1c[nH]c2ccccc12)C(=O)NCC(c1ccco1)N1CCN(c2ccccc2)CC1 (centres undefined) | -3% | 1.2 | x | 4.7 | -12 | x | -2
CC(C)N1C(=O)C(=O)N(CC(=O)N(C)c2ccccc2)C1=O | x | x | x | -4.2 | x | -17 | -8
Cc1nc2ccccn2c1C(=O)Nc1ccc(Cl)cc1 | -7% | -5.0 | -8 | -1.4 | -3 | -7.2 | -6
CCCn1nnnc1NCc1ccccc1OCc1ccc(F)cc1 | 13% | 1.6 | -5 | 5.3 | 3 | 2.8 | 10
COc1ccc(C(=O)OCn2nnc3ccccc3c2=O)cc1[N+](=O)[O-] | -8% | u | -8 | 3.8 | -8 | 4.8 | -2
CCN(Cc1cc2ccc(C)cc2[nH]c1=O)C(=O)c1cccnc1 | 6% | 4.2 | x | x | 4 | x | x
COc1ccc(C(=O)Nc2ccc(-n3nncc3C(C)(C)C)cc2)cc1 | 6% | 3.5 | -9 | 0.1 | -34 | 0.4 | 6
O=C(/C=C/c1ccccc1)OCC(=O)N1CCN(c2ccccc2)CC1 | -5% | -3.1 | x | 1.4 | 3 | -3.1 | -3
O=C(COC(=O)CCCN=C1NS(=O)(=O)c2ccccc21)NC(=O)NC1CCCC1 | 2% | 0.3 | x | 0.3 | 5 | 0.8 | -2
COc1ccc(-c2nn(-c3ccccc3)cc2C(=O)O)cc1 | 8% | -1.1 | 18 | -4.8 | -6 | 1.6 | -8
Cc1ccc(NC(=O)c2oc3ccccc3c2C)nc1 | -6% | u | 2 | 2.2 | 8 | -5.9 | -4
CC(C)(C)NC(=S)NC1CC1 | -2% | 0.3 | x | 2.7 | -3 | -1.5 | -3
O=C(Nc1cc(-c2ccccc2)cs1)c1ccco1 | -3% | x | x | -0.6 | x | x | 5
COc1cccc(CN(C)CC(=O)Nc2cccc3ccccc23)c1 | 0% | -4.3 | x | -3.8 | 6 | -6.6 | -1
O=C(NC1(c2ccccc2)CC1)C1CCC(=O)N(Cc2ccc(Cl)cc2)C1 (centres undefined) | 3% | 0.5 | -11 | -1.1 | -10 | -3.6 | -9
O=S(=O)(c1ccc(NCCCO)nc1)N1CCOCC1 | 7% | x | x | -5.0 | x | x | 4
Cc1ccc(NC(=O)C(c2ccccc2)N2CCN(CC(=O)NC3CC3)CC2)cc1Cl (centres undefined) | x | x | x | 6.0 | x | 5.9 | 1
CCOCc1cnc(C)nc1NCC(=O)c1c(C)[nH]c2cc(C)ccc12 | 10% | 3.8 | 57 | 3.7 | 12 | -11 | 8
CCOC(=O)/C(C#N)=C1/SC(CC)C(=O)N1c1ccc(C)cc1 (centres undefined) | 9% | 3.2 | 18 | 4.0 | 3 | 3.4 | -3
CCOc1ccc(/C=N/N2C(C)CCCC2C)cc1 (centres undefined) | 20% | 7.4 | -11 | -0.8 | 2 | -0.9 | 2
CC(C)CCNC(=O)CN1C(=O)NC(c2ccccc2)(c2ccccc2)C1=O | x | 6.5 | x | -1.3 | 3 | 0.4 | 3
COc1ccc(NC(=O)CN(C)CC(=O)N2CC(=O)Nc3ccccc32)cc1 | x | x | -8 | 0.4 | x | -3.5 | -1
O=C(Cn1sc2ccccc2c1=O)NC12CC3CC(CC(C3)C1)C2 | 12% | 0.3 | x | -1.5 | -43 | -0.4 | 3
C[C@H](NC(=O)[C@H]1N2C(=O)c3ccccc3C2SC1(C)C)C(=O)N1CCN(C)CC1 (some centres undefined) | 9% | 4.7 | -1 | 3.8 | -4 | 0.4 | -1
CCOc1ccc(N(CC(=O)NCc2ccccc2)S(=O)(=O)c2c(C)noc2C)cc1 | -2% | 3.2 | -28 | -0.5 | -4 | 3.0 | 1
O=C(Nc1ccccn1)NC1CCCCC1 | 7% | 8.5 | 4 | 1.0 | 23 | 3.2 | -6
Cc1ccc(NC(=O)c2cc(S(=O)(=O)N(C)C)ccc2N2CCCC2)cc1S(=O)(=O)N(C)C | -2% | u | 0 | -2.1 | -4 | -3.5 | 11
CC1(C)Oc2ccc3ccc(=O)oc3c2C(N2CCCCC2)C1O (centres undefined) | u | 2.0 | -14 | 5.9 | -17 | 7.6 | -5
COc1ccc(NC(=O)[C@H](C)NC(=O)C2CCN(S(=O)(=O)c3ccc(OC)cc3)CC2)cc1 | x | 4.7 | -1 | -0.3 | -2 | 8.4 | -2
CCN(Cc1ccncc1)C(=O)c1ccc(C)o1 | -5% | 0.4 | -6 | 3.1 | 2 | 2.9 | 3

(listing goes on)
SMILES | Vif A3G | RanGTP-Impb inh | ALR H2O2 inh | HNF4A DNA FP | Calb FLC | LANA-H2B inh | Beta2AR agonist
CCc1ccccc1NC(=S)N1CCN(c2ccccc2F)CC1 | x | 0.6 | -8 | 1.2 | -24 | -3.3 | -2
Cc1ccc(/C=C/C(=O)C2C(=O)c3ccccc3C2=O)cc1 | 3% | 0.7 | 19 | 1.9 | -18 | -0.2 | -1
N#C/C(C(=O)N1CCCCC1)=C1/N=C(N)c2ccccc21 | -3% | -2.5 | -1 | 1.6 | -2 | 3.3 | 28
CC(=O)C1=C(O)C(=O)N(c2cccnc2)C1c1ccc(Cl)cc1 (centres undefined) | -4% | 1.5 | x | -4.7 | 11 | 6.1 | 4
O=C(NNC(=S)NCc1ccccc1)c1ccc2c(c1)OCO2 | x | -0.5 | 68 | 1.2 | 2 | 8.8 | 7
O=C(NCCOc1ccccc1)c1ccccc1 | 2% | -1.0 | 0 | -0.3 | 4 | 5.2 | 8
CC(=O)c1cccc(NC(=O)CSc2nc(N3CCCCC3)nc(N3CCCCC3)n2)c1 | 25% | 7.8 | x | -2.0 | 0 | 1.2 | -4
COc1ccc(CNC(=O)C2CCN(S(=O)(=O)N3CCOCC3)CC2)cc1 | u | 0.7 | -4 | 0.9 | -3 | 2.0 | -2
O=C(CCC(=O)N/N=C/c1ccc(Br)o1)N/N=C/c1ccc(Br)o1 | x | -5.4 | -1 | -0.5 | -11 | 1.9 | -11
CC(C)n1nccc1N(Cc1ccc(C#N)cc1)S(=O)(=O)c1ccccc1 | x | 7.1 | -1 | -2.2 | -6 | 1.1 | -15
NC(=O)c1ccc[n+](Cc2cccc3ccccc23)c1 | -2% | 0.8 | 2 | 6.7 | -13 | 3.4 | 1
COc1ccccc1N1CCN(C(=O)c2ccc(Cn3c(=S)[nH]c4cc5c(cc4c3=O)OCO5)cc2)CC1 | 3% | 0.2 | 0 | 1.6 | -4 | -0.7 | 11
COc1ccc(OC)c(C(C)NC(=S)NC2CCCCC2)c1 (centres undefined) | x | 1.2 | -7 | 2.4 | -37 | 1.6 | -2
Cc1ccc(C)c(OCCC(=O)OCC(=O)Nc2cc(S(=O)(=O)N3CCCCC3)ccc2C)c1 | -4% | x | -5 | 1.1 | x | 5.7 | -6
CN(C)c1nc(N(C)C)n(Cc2c(Cl)cccc2Cl)n1 | -4% | -0.3 | 51 | -0.9 | -11 | -2.2 | 1

Screening results (PubChem BioAssay)

The order is random; about 6.3% have a hit in one of these screens.
